# Screening results as filed in PubChem.
# rRNA inh HTS – inhibitors of bacterial rRNA selective over humanized ribosomes; AID 720706; 350,000 tested, 1.6% active; GFP signal change (wild-type ribosome), % (test concentration not listed); E. coli WT GFP vs humanized-ribosome RFP mutants, fluorescence, 24 h; hits give low values; DMSO median 0, no signal -100;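 active means significant combined selectivity score with lowered wild-type GFP, culture density cut under 30%, mutant RFP and density less affected; inactive means any of these conditions unmet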; further: one replicate is shown; some compounds called inactive have numbers as strong as hits
# rRNA inh HTS OD600 – further read-out of rRNA inh HTS, marked with its call; OD600 change, %; measured here: OD600 growth;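 optical density of the mix in the first replicate; 0 = DMSO median and -100 = no signal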
# rRNA inh HTS RFP – second read-out of rRNA inh HTS, no call of its own (marks repeat the call); RFP signal change, %; measured here: RFP humanized mutant strains;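 first replicate; 0 = DMSO median and -100 = no signal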
# Active calls of the source: *; & = joins results of further samples.
SMILES,rRNA inh HTS,rRNA inh HTS OD600,rRNA inh HTS RFP
CO[C@@H]1CN(C)C(=O)c2cc(NS(C)(=O)=O)ccc2OC[C@@H](C)N(C(=O)NC(C)C)C[C@@H]1C,4.0,1.3,0.1
CC(C)(C)NC(=O)C(C1CC1)n1c(=O)c(-c2ccco2)nc2ccccc21 (stereo unspecified),4.5,10.0,1.3
O=C(CC[C@H]1O[C@@H](n2ccc(=O)[nH]c2=O)[C@H](O)[C@@H]1O)N1CCN(c2ccccn2)CC1,5.6,16.1,0.5
C[C@@H]1CCCCO[C@@H](CN(C)S(=O)(=O)c2cn(C)cn2)[C@@H](C)CN([C@H](C)CO)C(=O)c2cc(NS(=O)(=O)c3ccccc3)ccc2O1,5.5,10.2,5.3
CCC(=O)N1C[C@H](C)[C@@H](OC)CN(C)C(=O)c2cc(NS(C)(=O)=O)ccc2OC[C@@H]1C,-1.3,-3.5,-0.4
C[C@@H]1CN([C@H](C)CO)C(=O)Cc2cc(NC(=O)CCC(F)(F)F)ccc2O[C@@H]1CN(C)C(=O)Nc1ccc(F)cc1,3.1,5.0,-2.5
O=C(COC(=O)c1cc(F)c(F)cc1Cl)NC1CCCCCC1,11.2,19.7,0.6
CN1C(=O)c2cc(NC(=O)Cc3cccs3)ccc2OC[C@@H]2O[C@H](CC(=O)O)CC[C@H]21,3.0,-5.3,-2.7
COc1cccc(-c2ccc([C@H]3[C@H]4CN(C(=O)C5CCOCC5)CC(=O)N4[C@H]3CO)cc2)c1,0.7,6.2,1.0
Cc1ccc(S(=O)(=O)N2C[C@H](O)COC[C@H]3O[C@@H](CC(=O)NCc4ccc(Cl)c(Cl)c4)CC[C@@H]32)cc1,-38.4,-62.8,-4.7
COC(=O)C[C@@H]1CC[C@@H](NC(=O)c2ccccc2F)[C@@H](CO)O1,12.8,10.5,2.5
CO[C@H]1CN(C)C(=O)c2cc(NS(=O)(=O)c3ccc(C)cc3)ccc2OC[C@@H](C)N(Cc2nccs2)C[C@@H]1C,-0.1,-7.2,1.9
C[C@H]1CN([C@@H](C)CO)C(=O)Cc2cc(NC(=O)CCN3CCOCC3)ccc2O[C@H]1CN(C)Cc1ccc(C(=O)O)cc1,2.5,4.1,-1.4
COc1ccc2c3c(n(C)c2c1)[C@@H](CO)N(CC1CC1)CC31CN(C(=O)Nc2ccc(F)cc2F)C1,-5.9,-5.9,-0.9
COc1cccc(S(=O)(=O)Nc2ccc3c(c2)[C@H]2C[C@@H](CC(=O)NCc4cccc(F)c4)O[C@@H](CO)[C@H]2O3)c1,-0.5,-11.1,6.4
O=C(C[C@@H]1C[C@@H]2c3cc(NC(=O)Nc4ccccc4F)ccc3O[C@@H]2[C@H](CO)O1)NCC(F)(F)F,-1.1,-2.6,-1.5
COc1cccc(S(=O)(=O)N2C[C@@H](O)COC[C@@H]3O[C@@H](CC(=O)N4CCN(c5ccccc5)CC4)CC[C@H]32)c1,-4.4,-5.5,2.8
CCNC(=O)C[C@@H]1CC[C@@H]2[C@H](COC[C@@H](O)CN2Cc2ccccc2F)O1,-1.9,0.6,-5.2
N#C[C@@H]1[C@H](c2ccccc2)[C@H](CO)N1C(=O)Cc1ccccn1,2.2,0.0,-4.8
C[C@@H]1CN([C@@H](C)CO)C(=O)c2cc(NS(=O)(=O)c3ccccc3)ccc2O[C@@H]1CN(C)C(=O)NC1CCCCC1,-0.4,2.1,-2.6
COCCNc1ncnc2c1ncn2[C@H]1CN(Cc2ccncc2)C[C@@H](CO)O1,27.4,28.2,3.6
C[C@@H]1CN([C@H](C)CO)C(=O)c2cc(NC(=O)Nc3cccc4ccccc34)ccc2O[C@@H](C)CCCCO[C@H]1CN(C)S(C)(=O)=O,1.3,-3.5,1.1
CS(=O)(=O)N1CCCCN2[C@@H](CO)[C@H](c3ccc(C4=CCCC4)cc3)[C@@H]2C1,5.0,19.7,-0.9
O=C(C[C@@H]1CC[C@@H](NC(=O)Nc2ccc(F)cc2)[C@H](CO)O1)NCCN1CCCC1,0.5,4.7,-1.6
COc1ccc(C(N)c2csc(Nc3ccc(C(=O)NCCCO)cn3)n2)cc1 (stereo unspecified),-4.8,-4.8,12.1

# (listing goes on)
SMILES,rRNA inh HTS,rRNA inh HTS OD600,rRNA inh HTS RFP
CN(C)C(=O)[C@@H]1[C@@H](CO)[C@@H]2Cn3c(ccc(-c4cccc(F)c4)c3=O)[C@H]1N2CCc1ccccc1,-5.2,-4.4,-2.9
C[C@@H]1CCCCO[C@@H](CN(C)C(=O)Nc2ccc(F)cc2)[C@@H](C)CN([C@H](C)CO)C(=O)c2cc(NS(=O)(=O)c3ccc(F)cc3)ccc2O1,0.8,-0.1,-2.3
CC(=O)Oc1ccc(Cn2c(C)c(C(=O)NCc3ccc4c(c3)OCCO4)sc2=O)cc1,4.0,8.3,-9.5
C[C@@H]1CN([C@H](C)CO)C(=O)c2cc(C#CC3(O)CCCC3)cnc2O[C@H]1CN(C)C(=O)C1CCC1,-0.1,0.9,0.4
C[C@@H]1CN([C@H](C)CO)C(=O)Cc2cc(NS(=O)(=O)c3ccccc3)ccc2O[C@@H]1CN(C)S(=O)(=O)c1cccs1,0.3,-3.6,0.1
CCNC(=O)C[C@H]1CC[C@H]2[C@H](COc3ccc(NC(=O)c4ccccc4Cl)cc3C(=O)N2C)O1,-0.4,5.8,0.3
COC(=O)C[C@H]1CC[C@@H](NC(=O)Nc2ccc(C(F)(F)F)cc2)[C@@H](CO)O1,-16.8&-12.0,-8.9&-8.1,11.2&-3.1
Cc1noc(C)c1S(=O)(=O)N(C)C[C@@H]1Oc2c(NS(=O)(=O)c3ccccc3)cccc2C(=O)N([C@H](C)CO)C[C@@H]1C,-0.4,3.6,-0.5
CCCN1C[C@@H](C)[C@H](OC)CN(C)C(=O)c2ccc(NC(=O)CC)cc2OC[C@@H]1C,1.9,3.1,-3.0
C[C@H](CO)N1C[C@H](C)[C@H](CN(C)S(C)(=O)=O)Oc2ccc(NC(=O)Cc3ccccc3)cc2CC1=O,2.7,4.3,-2.4
CC(C)NC(=O)NCC[C@H]1CC[C@@H](NC(=O)c2ccc(F)cc2)[C@@H](CO)O1,4.2,3.6,-0.6
C[C@@H](O)C#Cc1ccc2c(c1)O[C@@H](CN(C)Cc1ccc(-c3ccccc3)cc1)[C@@H](C)CN([C@@H](C)CO)S2(=O)=O,-0.8,-20.6,16.3
CS(=O)(=O)N(CC1CCC1)C[C@H]1N[C@H](CO)[C@H]1c1ccccc1,3.2,4.1,-1.0
Cc1noc(C)c1S(=O)(=O)Nc1ccc2c(c1)C(=O)N([C@@H](C)CO)C[C@H](C)[C@H](CN(C)Cc1ccncc1)OCCCC[C@@H](C)O2,2.9,16.1,-2.9
COc1ccc(NC(=O)N(C)C[C@@H]2OCCCC[C@@H](C)Oc3ccc(NC(=O)Cc4ccccc4)cc3C(=O)N([C@@H](C)CO)C[C@H]2C)cc1,-0.8,-7.1,3.5
CCCNC(=O)[C@H]1[C@H](CO)[C@H]2Cn3c(ccc(-c4cccc(C(=O)N(C)C)c4)c3=O)[C@@H]1N2,2.0,6.6,-2.2
CCCNC(=O)C[C@H]1C[C@@H]2c3cc(NC(=O)COC)ccc3O[C@@H]2[C@H](CO)O1,4.4,5.2,-0.8
C[C@@H]1CN([C@@H](C)CO)C(=O)c2c(c3ccccc3n2C)-c2ccccc2CO[C@@H]1CN(C)Cc1cccc(C(F)(F)F)c1,0.1,2.0,-3.2
C[C@H](O)[C@@H]1C(=O)N2CCc3c([nH]c4ccccc34)[C@@H]2C[C@@H]1N(C)C(=O)Nc1cccc2ccccc12,6.7,-12.1,2.6
O=C(C[C@H]1C[C@@H]2c3cc(NC(=O)Nc4ccccc4F)ccc3O[C@@H]2[C@@H](CO)O1)NC1CCCC1,1.6,-10.3,-4.0
O=C(N[C@@H]1C=C[C@@H](CC(=O)N2CCCCC2)O[C@H]1CO)c1ccccn1,2.0,-3.8,3.5
C[C@H]1CN([C@@H](C)CO)C(=O)Cc2cc(NC(=O)C3CCCCC3)ccc2O[C@@H]1CN(C)S(C)(=O)=O,0.9,3.2,-2.8
O=C(O)c1cccc(N2C(=O)C=CC2=O)c1,16.4,16.4,4.2
C[C@H](NC(=O)C[C@@H]1CC[C@H](NC(=O)Nc2ccc3c(c2)OCO3)[C@@H](CO)O1)c1ccccc1,-0.2,3.3,-1.4
COC(=O)c1cc2c(c3c4ccccc4n(S(=O)(=O)c4ccccc4)c13)C(=O)N(C)C2,-11.6,-8.4,3.0

# Continued.
SMILES,rRNA inh HTS,rRNA inh HTS OD600,rRNA inh HTS RFP
C[C@@H]1CN([C@@H](C)CO)S(=O)(=O)c2ccc(C3=CCCC3)cc2O[C@H]1CN(C)S(C)(=O)=O,1.7,-11.7,-0.5
C[C@@H]1CN([C@@H](C)CO)C(=O)c2cc(C#CCC3CCCC3)cnc2O[C@H]1CN(C)CC1CCOCC1,-2.8,3.6,8.3
C[C@@H]1CN([C@@H](C)CO)C(=O)Cc2cc(NC(=O)Cc3ccccc3)ccc2O[C@H]1CN(C)S(=O)(=O)c1cccs1,-2.2,-15.3,0.5
C[C@H]1CN(C)C(=O)c2cccc(N)c2O[C@H]1CN(C)C(=O)OC(C)(C)C,0.2,5.5,-0.1
CCNC(=O)C[C@H]1CC[C@H]2[C@@H](COc3ccc(NC(=O)c4ccc(F)cc4)cc3C(=O)N2C)O1,2.3,4.1,-2.6
CN1c2ccc(-c3cccc(C#N)c3)cc2[C@@H]2[C@@H](CCN2S(=O)(=O)c2ccc(F)cc2)[C@@H]1CO,-1.3,-8.0,0.3
N#C[C@H]1[C@H](c2ccc(C3=CCCC3)cc2)[C@H](CO)N1C(=O)C1CCC1,3.7,0.0,-2.5
O=C(NCC[C@@H]1CC[C@@H](NC(=O)Nc2cc(F)ccc2F)[C@H](CO)O1)Nc1ccc(F)cc1,-3.2,4.3,-1.3
C[C@@H]1CN([C@H](C)CO)C(=O)c2cccc(NC(=O)c3cnccn3)c2O[C@H]1CN(C)Cc1ccc(C(=O)O)cc1,4.2,2.6,-1.7
C#CCNC(=O)C[C@@H]1C[C@@]2(C(=O)OCC)CCCC=C2N(CCCCCCCC)C1=O,13.9,11.9,-2.1
C[C@H]1CN([C@@H](C)CO)C(=O)Cc2cc(NC(=O)CCCCCC(=O)Nc3ccccc3N)ccc2O[C@H]1CN(C)C(=O)Nc1ccc(F)cc1,4.3,9.9,1.3
O=C(COC(=O)c1cc([N+](=O)[O-])ccc1N1CCOCC1)NCc1ccccc1,-5.6,8.6,-3.3
O=C(Nc1ccc(F)cc1)N[C@@H]1CC[C@H](CC(=O)N2CCCCC2)O[C@@H]1CO,2.8,-5.0,-0.2
O=C(Nc1ccc2c(c1)OCCO2)C(C1CC1)N1CCN(c2ccc(F)cc2)CC1 (stereo unspecified),4.2,-2.4,-1.6
O=C(N[C@H]1C=C[C@@H](CC(=O)N2CCN(c3ccccc3)CC2)O[C@H]1CO)c1ccccc1,1.7,2.6,-0.5
C[C@@H]1CN([C@H](C)CO)C(=O)c2cc(C#CCN(C)C)cnc2O[C@H]1CN(C)C(=O)Cc1cccnc1,5.6,2.9,-0.3
COCCNC(=O)C1(C)CCCN(C(=O)c2ccccc2C(F)(F)F)C1 (stereo unspecified),13.3,17.2,-0.8
C[C@@H]1CN([C@@H](C)CO)C(=O)c2cc(NS(=O)(=O)c3cccs3)ccc2O[C@@H](C)CCCCO[C@@H]1CN(C)Cc1ccc(C(F)(F)F)cc1,-4.5,-2.6,0.3
O=C(Nc1ccc2c(c1)OCO2)N[C@@H]1CC[C@H](CCNC(=O)C2CCCCC2)O[C@@H]1CO,-0.1,-4.6,-1.3
Cc1noc(C)c1NC(=O)Nc1ccc2c(c1)C(=O)N([C@H](C)CO)C[C@@H](C)[C@@H](CN(C)C(=O)Nc1ccc(C(F)(F)F)cc1)OCCCC[C@@H](C)O2,2.4,4.9,-1.9
C[C@@H]1CN([C@H](C)CO)C(=O)c2cc(C#C[C@@H](C)O)cnc2O[C@H]1CN(C)C(=O)CC1CC1,-4.0,-2.7,-3.1
COc1ccc(S(=O)(=O)Nc2ccc3c(c2)CC(=O)N([C@@H](C)CO)C[C@H](C)[C@@H](CN(C)S(C)(=O)=O)O3)cc1,2.7,6.9,0.9
O=C(Nc1ccc(F)cc1)N[C@H]1CC[C@H](CC(=O)N2CCOCC2)O[C@@H]1CO,-0.5,1.9,-3.4
COc1ccc2c3c(n(C)c2c1)[C@H](CO)N(C(=O)c1ccccc1)CC31CN(C)C1,1.8,3.9,-2.5

# Only part of the results is shown (hit frequency here may not be typical).
